Compound activity deposited in PubChem BioAssay by several laboratories.
YopH inh: inhibitors of Yersinia enterocolitica YopH tyrosine phosphatase; fluorescence Ex485/Em525; inhibition, %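 (about 10 µM by stock and volumes)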; actives 0.16% (n = 140,000); AID 898;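 active = inhibition of 50% or more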;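 note: controls were vehicle for no effect and minimum signal wells for full effect; inactives centre near -20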
RecA intein inh: Mtb RecA intein splicing inhibition; actives 0.75% (n = 290,000); inhibition, %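 (about 9 µM by stock and volumes)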; cell-free RecA intein splicing, fluorescence; P9WHJ3; in the data active = inhibition above about 30%; inconclusive = no clear call, values can overlap the other calls;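 note: 0% = vehicle wells and 100% = reference inhibitor control wells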
Target sequence (P9WHJ3 whole entry, looked up): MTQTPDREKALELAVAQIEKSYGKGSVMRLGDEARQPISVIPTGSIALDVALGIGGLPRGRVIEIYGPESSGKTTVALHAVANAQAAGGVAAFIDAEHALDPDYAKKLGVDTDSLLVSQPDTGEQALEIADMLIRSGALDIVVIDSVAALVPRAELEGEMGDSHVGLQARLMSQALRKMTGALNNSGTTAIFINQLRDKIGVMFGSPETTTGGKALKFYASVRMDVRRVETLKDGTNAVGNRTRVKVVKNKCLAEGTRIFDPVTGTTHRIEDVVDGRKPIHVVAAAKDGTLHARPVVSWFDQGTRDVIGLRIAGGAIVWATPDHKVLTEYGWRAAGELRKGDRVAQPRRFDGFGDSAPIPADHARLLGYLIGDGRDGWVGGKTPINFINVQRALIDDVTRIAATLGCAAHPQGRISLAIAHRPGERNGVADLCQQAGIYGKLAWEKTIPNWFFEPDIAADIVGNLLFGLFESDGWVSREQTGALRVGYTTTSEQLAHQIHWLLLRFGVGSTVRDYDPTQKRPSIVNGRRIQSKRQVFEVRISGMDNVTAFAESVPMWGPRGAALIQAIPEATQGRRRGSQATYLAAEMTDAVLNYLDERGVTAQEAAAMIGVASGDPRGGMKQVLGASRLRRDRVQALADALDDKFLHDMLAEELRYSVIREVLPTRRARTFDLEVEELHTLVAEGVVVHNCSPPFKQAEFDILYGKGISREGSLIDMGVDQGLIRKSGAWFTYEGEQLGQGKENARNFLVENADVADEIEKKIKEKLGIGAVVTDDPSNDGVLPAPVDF
Mtb betalactam: beta-lactam sensitization of Mtb H37Rv. M. tuberculosis H37Rv growth with meropenem, percent inhibition; hits of this screen are not shown here. inhibition, % at 25 µM. actives 0.27% (n = 330,000). AID 434955;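 active = about 74% or more and at least 40 points above the plate without the antibiotic, then above 30% in a dose series; inconclusive = first-round hits that could not be retested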;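 note: growth measured after seven days incubation then overnight dye step; 0% = bacteria only wells and 100% = bacteria with antibiotic; twin plates without the antibiotic show which effects depend on it; some results filed as inactive read as strong as hits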
Arbovirus inh: blocks arbovirus infection; arbovirus infection cell-based antiviral screen; inhibition, % at 10 µM; actives 0.37% (n = 200,000);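 active = inhibition from about 30%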;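 note: bluetongue infection of BSR cells; cell survival read as ATP light after 72 h; 0% = infected wells without compound and 100% = uninfected wells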
Mtb H37Rv: M. tuberculosis H37Rv growth inhibitors, H37Rv strain (AID 1626) | actives 0.95% (n = 220,000) | inhibition, % at 10 µM, or IC50 in µM where a hit was titrated | M. tuberculosis H37Rv growth inhibition; higher % means a stronger effect;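 active = confirmed in a dose series; inconclusive = inhibition above 80% but not taken into the dose series; inactive = below 80% or under 30% at every dose of the series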;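 note: bacteria incubated seven days before Alamar blue readout; 0% = bacteria only wells and 100% = bacteria with antibiotic wells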
Arbovirus inh repeat: further read-out of Arbovirus inh, marked with its call; inhibition, %; measured here: 10K subset replicate screen; many hits read low in the repeat;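 first of two repeat runs on a subset; 0% = infected and 100% = uninfected wells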
Active calls of the source: *; ? = inconclusive; . = not tested or not shown; & = joins results of further samples. An excerpt; count on the stated rates, not on these rows.

SMILES	YopH inh	RecA intein inh	Mtb betalactam	Arbovirus inh	Mtb H37Rv	others
O=S(=O)(Nc1cccc(-c2nc3cccnc3s2)c1)c1ccc2c(c1)CCCC2	-9	8.7	7	-16	9%
COCCN1Cc2cccc(C(=O)NCC3CCN(CC(C)C)C3)c2C1=O (stereo not given)	.	-3.2	-2	1	-6%
CCn1c(=O)n(CC)c2cc(NS(=O)(=O)c3ccccc3)ccc21	.	-0.2	1	.	.
COC(=O)Cn1c(O)c(N=NC(=O)OC)c2ccccc21	.	-1.0	-12	.	-4%
CCOc1ccc(Cl)cc1S(=O)(=O)n1cnc2cc(C)c(C)cc21	-8	-0.1	-3	0	-2%
COc1cc2c(cc1OC)C(Nn1cnnc1)=NC1(CCCC1)C2	.	2.0	1	.	-10%
COc1ccccc1S(=O)(=O)Cc1ccc(C(=O)NC2CCCCCC2)o1	.	1.2	-1	.	.
CC(C)CCNC(=O)COc1cccc2c1OC(C)(C)C2	.	-2.4	3	-2	2%
CSCC[C@H](NC(=O)OC(C)(C)C)c1nnc(SCC(=O)Nc2c(C)cccc2C)o1	-9	.	-5	1	-2%
Cc1c(C(=O)O)nn(-c2ccccc2)c(=O)c1C#N	.	0.8	-2	4	7%	Arbovirus inh repeat=-1
COCCNc1cnn(-c2ccccc2)c(=O)c1Cl	.	-1.2	-3	.	.
O=S(=O)(CC(CN1CCCCC1)N1CCCCC1)c1ccc2ccccc2c1 (stereo not given)	.	-0.6	.	-34	0%
O=C(CSc1nc2ccccc2c(=O)n1-c1ccccc1)N/N=C/C=C/c1ccccc1[N+](=O)[O-]	.	1.5	39	-9	35%
CN1C(=O)/C(=C2\SC(=S)N(C(CCC(=O)O)C(=O)O)C2=O)c2ccccc21 (stereo not given)	4	-8.0	-4	8	-3%	Arbovirus inh repeat=7
Cc1ccc(NC(=O)C2CCCN(S(=O)(=O)c3ccc4[nH]c(=O)ccc4c3)C2)c(C)c1 (stereo not given)	.	-3.2	9	.	.
CCN(CC)CCNc1nc(-c2ccccc2)c2c(c1C#N)CC(C)(C)OC2	-4	-2.0	-6	-1	-2%
CSc1nnc2ccc(-c3cccs3)nn12	.	-1.4	-2	-10	2%
COc1ccc(Cn2nnnc2C(c2cc3cccc(C)c3[nH]c2=O)N2CCN(C)CC2)cc1 (stereo not given)	.	-2.2	-2	19	-5%
O=C(CSc1nc2ccccc2c(=O)n1-c1ccccc1)N1CCN(CCO)CC1	-26	3.1	0	0	-5%	Arbovirus inh repeat=3
O=C(OCc1nnc(-c2ccccc2)o1)c1cc2ccccc2cc1O	.	-2.8	7	9	-1%
CC(C)(C)NC(=O)C1N(c2cccnc2)C(=O)C2C(C(=O)Nc3ccccc3F)C3(C)C=CC21O3 (stereo not given)	-48	-0.2	-1	13	-4%
Cc1ccc(C(=O)N2CCCC(C(=O)c3cc(F)ccc3F)C2)s1 (stereo not given)	.	6.1	-1	8	-8%
Cn1cnnc1SCC(=O)NC1CCCCC1	.	-2.7	-3	6	-2%
Cc1ccc(-n2nc3c(=O)n(CCCC(=O)N4CCCCC4)nc(C)c3c2C)cc1	.	-2.2	-1	.	.
O=C(CCNS(=O)(=O)c1cccs1)Nc1ccccc1F	-6	-0.5	0	-7	-7%	Arbovirus inh repeat=1

(further entries)
SMILES	YopH inh	RecA intein inh	Mtb betalactam	Arbovirus inh	Mtb H37Rv	others
COCCNCCOCCOc1cccc(OC)c1	-11	-1.3	-9	2	-5%
CCCCN(CCCC)c1cc(C)nc(-c2ccccc2O)n1	-27	12	72	16	3%
O=C(c1ccco1)N1CCN(S(=O)(=O)c2ccc(Br)s2)CC1	-26	2.8	0	5	2%
CCN(C(=O)Cn1cnc2c(nc3n2CCCCC3)c1=O)c1cccc(Cl)c1	.	-0.9	1	.	.
COc1ccccc1N1CCN(S(=O)(=O)c2ccc3c(c2)n(C)c(=O)n3C)CC1	.	-0.2	-8	16	-1%
Cc1ccc(CNC(=O)C2CCCN(S(=O)(=O)c3cccnc3)C2)cc1 (stereo not given)	2	-1.9	-7	-2	5%
CCOC(=O)C(NC(=O)CC)(Nc1sc(C)c(CC)c1C#N)C(F)(F)F (stereo not given)	-17	-0.4	6	6	3%
CCOC(=O)c1c(C)c(C(=O)NCc2ccccn2)c(C)n1C	-20	-0.6	-14	-2	-3%
O=C(NCCCn1ccnc1)c1cc2c(ccc3ccccc32)o1	.	.	-8	4	2%
CCOC(=O)N1CCN(CC(=O)Nc2sc(CC)cc2C(=O)c2ccc(OC)cc2)CC1	.	10	94	.	5%
c1ccc(Cn2nnc3c(N4CCc5ccccc54)ncnc32)cc1	-122	4.0	-3	-5	-15%
CC(C)C(=O)Nc1ccc2c(c1)nc(CCN1CCCCC1)n2C	.	-1.5	-5	.	.
COc1cc(C)nc(N(Cc2ccccc2)S(=O)(=O)c2ccc(C)cc2)n1	.	12	0	.	3%
Cc1nnc(SC/C=C/c2ccccc2)n(N)c1=O	.	-2.5	91	10	-2%
Cc1cc(=O)[nH]c(COc2ccccc2)n1	-25	0.8	-15	6	5%
CC(C)(O)C#Cc1ccc(C(=O)NC2CCCCC2)s1	.	-1.4	-2	0	-7%
CSCCC(NS(=O)(=O)c1ccccc1F)C(=O)N1CCCCCCC1 (stereo not given)	.	2.9	-2	.	.
CC1(C)O[C@@H]2C[C@H]3[C@@H]4CCC5=CC(=O)C=C[C@]5(C)[C@@]4(F)[C@@H](O)C[C@]3(C)[C@]2(C(=O)CO)O1	-50	1.8	-9	15	-8%
CCN(CC)c1ccc(SS(=O)(=O)O)cc1	10&-45	-1.7&-3.3	4&-3	-8&-7	-10%&-5%
Cc1cccc(COc2ncnc3nc[nH]c23)c1	-16	.	-3	4	-2%
Cc1cc(C)n(Cc2ccc(Cl)cc2Cl)c(=O)c1S(=O)(=O)c1ccccc1	0	3.3	-1	0	6%
Cc1ccc(CSCC2Nc3ccc(C(=O)N4CCN(c5ccc(F)cc5)CC4)cc3NC2=O)cc1 (stereo not given)	.	29	21	.	.
Cc1ccc(/C=N/n2c(-c3ccco3)n[nH]c2=S)s1	-8	-0.4	0	-7	5%
COc1cc(/C=C2\CC/C(=C\c3cc(OC)c(OC)c(OC)c3)C2=O)cc(OC)c1OC	-33	-1.9	84	6	10%
Cc1cc(=O)cc(C)n1-c1ccc(F)cc1F	.	-1.7	-2	-4	1%

Next part.
SMILES	YopH inh	RecA intein inh	Mtb betalactam	Arbovirus inh	Mtb H37Rv	others
Cc1cc(OCC(=O)O/N=C(\N)c2ccccc2)cc(C)c1Cl	-31	.	17	2	2%
COc1ccc(N2CCN(C3CCCN(S(=O)(=O)c4ccc(C)cc4C)C3)CC2)cc1 (stereo not given)	.	6.2	96	.	.
COc1ccc(Br)cc1S(=O)(=O)N(CC(=O)N1CCN(C)CC1)c1ccccc1	.	2.0	-16	.	.
O=C(CSCc1cnn(-c2ccccc2)c1-n1cccc1)NCCN1CCOCC1	-9	2.0	-2	10	-12%
Cc1ccc(NC(=O)c2cc(Cl)nc3ccccc23)cc1	-3	7.2	-11	-6	-1%
N#Cc1cn(CCOc2ccccc2F)c2ccccc12	-23	.	0	-3	1%
CCC(C)(C)NC(=O)C(c1cccnc1)N(C(=O)c1csnn1)c1ccccc1 (stereo not given)	.	2.0	-5	-2	-5%
O=C(NC(=S)Nc1ccc(N2CCOCC2)c(Cl)c1)c1cncc(Br)c1	-24	1.3	45	-1	-6%
Cc1cc(=O)c2cc(Cl)ccc2[nH]1	-20	-1.7	-1	18	.
COc1ccc(CNc2nc(SCC(=O)NCc3ccco3)nc3ccccc23)cc1	-8	3.2	-9	-6	7%
COCCNC(=O)C(c1ccc(C)o1)N(Cc1ccccc1)C(=O)Cn1nnc2ccccc21 (stereo not given)	-30	1.2	3	-7	-9%
COCc1cc(=O)n2[nH]c(SCc3ccccc3)nc2n1	-31	-3.7	5	-4	0%
COc1cccc(-c2nn(CCC#N)cc2C(=O)Nc2ccccc2Cl)c1	.	3.6	0	.	.
O=C(c1cccs1)N(CCN1CCCCC1)CC1CCCN(C2CCCC2)C1 (stereo not given)	.	-1.1	-6	.	.
Cc1ccc(C(=O)Nc2ccccc2C(=O)O)cc1S(=O)(=O)NC1CCCCC1	.	-4.9	-1	.	.
CCCC(=O)OCC(=O)Nc1ccccc1C#N	.	-1.8	6	5	2%
COc1ccc(C)c2sc(N(CCCN(C)C)C(=O)c3ccc(S(=O)(=O)N4CCc5ccccc5C4)cc3)nc12	.	5.3	3	.	.
COc1cccc(N2CCN(S(=O)(=O)c3ccc(-n4cnnn4)cc3)CC2)c1	.	-1.1	2	.	.
Cc1cc(C(=O)OCC(=O)Nc2sc3c(c2C#N)CCC(C)C3)c2ccccc2n1 (stereo not given)	-5	2.7	-6	-3	8%
Cc1ccc(S(=O)(=O)N(CC(=O)N/N=C/c2cccc(C)c2)c2cccc3cccnc23)cc1	-22	-7.0	59	-12	-4%
CC(C)(C)OC(=O)CNC(=O)c1nc[nH]c1C(=O)NCC(=O)OC(C)(C)C	.	-1.0	-4	.	-11%
CC(CS(=O)(=O)c1cccc2cccnc12)N1CCCCC1 (stereo not given)	-33	0.6	-15	-1	2%
Cc1cc(C)nc(SC(C)C(=O)O)n1 (stereo not given)	-40	1.8	1	4	-1%
Cc1ccc2nc(NC(=O)C3CCCN(S(=O)(=O)c4cccc5nonc45)C3)sc2c1 (stereo not given)	.	1.3	-1	.	.
CC(=O)C(c1ccccc1)C(c1ccccc1)C(C)[N+](=O)[O-] (stereo not given)	.	0.2	2	.	.

Following part:
SMILES	YopH inh	RecA intein inh	Mtb betalactam	Arbovirus inh	Mtb H37Rv	others
CCOc1ccc(S(=O)(=O)N2CCCC(C(=O)NCCN3CCOCC3)C2)cc1Cl (stereo not given)	.	0.0	-7	.	.
COc1ccc(NC(=O)c2cc(C)nc3ccccc23)c(OC)c1	.	-0.4	.	7	1%
COc1ccc(C(=O)N2CCC3(CC2)OCCO3)cc1	.	2.4	2	.	.
COC(=O)c1ccccc1NC(=O)Cn1cnc2ccc(S(=O)(=O)N3CCC(C)CC3)cc2c1=O	-30	-4.6	1	-1	7%
COc1ccc(NC(=O)NNC(=O)C(C)Oc2ccc(C(C)C)cc2)c(OC)c1 (stereo not given)	.	-0.7	-9	.	.
COc1ccc(-n2c(=S)[nH]c3ncccc3c2=O)cc1	.	1.0	-2	.	-1%
CCC1=C(OC(=O)N(CC)CC)N2C(=O)OC(=NCC3CC3)[C@]2(Cc2ccccc2)[C@H]2C1=CC[C@H]1C(=O)N(CC)C(=O)[C@H]12	.	3.6	-7	.	17%
Cc1ccc(-c2nn(-c3ccccc3)cc2CNCc2ccccc2)cc1	.	3.5	99	-30	?
CC(=O)Nc1ccc(S(=O)(=O)/N=C2\SCCN2S(=O)(=O)c2ccc(NC(C)=O)cc2)cc1	-9	0.7	-1	1	.
CCC1S/C(=N/N=C/c2ccco2)N(Cc2ccccc2C)C1=O (stereo not given)	.	3.3	-8	.	-4%
COC(=O)c1ccc(CN2[C@H](C(=O)OC)C[C@@]3(O)[C@@H](O)[C@@H](O)[C@@H](O)C[C@@H]23)cc1	.	2.5	-3	.	17%
CC(C)=CCCC(C)CN1CCC(n2nccc2NC(=O)c2ccc3c(c2)OCO3)CC1 (stereo not given)	.	0.7	4	.	.
CCCCn1nnnc1SCC(=O)Nc1ccc(C)cc1	-43	-0.4	-5	3	21%
CC(=O)OC(/C(O)=C(\C#N)c1nc2ccccc2[nH]1)c1ccccc1 (stereo not given)	-26	-11	15	-12	-1%	Arbovirus inh repeat=-18
CC(=O)c1ccc(NC(=O)CSC(C)C)cc1	-39	-1.3	2	0	1%	Arbovirus inh repeat=-5
COc1ccc(/C=N/NC(=O)C(C)N(c2ccc(OC)cc2)S(C)(=O)=O)cc1 (stereo not given)	.	-0.8	-2	-2	-10%
CC(=O)NC1C(OCc2ccccc2)OC2COC(c3ccccc3)OC2C1OCC(=O)O (stereo not given)	.	0.5	4	-2	3%
O=C(O)CC(NCc1ccco1)C(=O)OCCc1ccccc1 (stereo not given)	-5	-0.8	-8	7	-14%

Grouped by structure, the entries above containing a COOH group
SMILES	YopH inh	RecA intein inh	Mtb betalactam	Arbovirus inh	Mtb H37Rv	others
Cc1c(C(=O)O)nn(-c2ccccc2)c(=O)c1C#N	.	0.8	-2	4	7%	Arbovirus inh repeat=-1
CN1C(=O)/C(=C2\SC(=S)N(C(CCC(=O)O)C(=O)O)C2=O)c2ccccc21 (stereo not given)	4	-8.0	-4	8	-3%	Arbovirus inh repeat=7
Cc1ccc(C(=O)Nc2ccccc2C(=O)O)cc1S(=O)(=O)NC1CCCCC1	.	-4.9	-1	.	.
Cc1cc(C)nc(SC(C)C(=O)O)n1 (stereo not given)	-40	1.8	1	4	-1%
CC(=O)NC1C(OCc2ccccc2)OC2COC(c3ccccc3)OC2C1OCC(=O)O (stereo not given)	.	0.5	4	-2	3%
O=C(O)CC(NCc1ccco1)C(=O)OCCc1ccccc1 (stereo not given)	-5	-0.8	-8	7	-14%
